ClpP mod = qHTS Assay for Activators of ClpP; purified B. subtilis ClpP, FRET peptide cleavage, 20 min; Potency, µM (series often up to 57.5 µM), for inactives: at the highest dose activity change, negative = active; hit rate 1.9% among 340,000; ATP-dependent Clp protease proteolytic subunit (Bacillus subtilis (strain 168)), P80244; active = well fitted falling curve with a large enough effect; inconclusive = small, poorly fitted or top-dose-only effect; inactive = no such curve, though single readings can be large or run the other way; also: potency is read from the fitted curve at half-maximal effect; the source files actives as falling curves though it sought activators and does not explain the sign; nearly all actives have a fitted effect of over 65% in size; many hits overshoot -100%
Target sequence (P80244 whole entry, looked up): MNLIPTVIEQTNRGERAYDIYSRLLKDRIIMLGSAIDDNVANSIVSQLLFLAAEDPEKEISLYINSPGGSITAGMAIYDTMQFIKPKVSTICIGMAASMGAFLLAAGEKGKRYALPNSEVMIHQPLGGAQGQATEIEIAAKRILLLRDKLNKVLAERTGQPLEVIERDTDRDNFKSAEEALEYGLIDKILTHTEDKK
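Buffer: 100 mM Tris/HCl pH8, 100 mM KCl, 0.05% low protease BSA, 2.5% glycerol, 0.01% Tween-20. ClpP 10 microg/mL final; 20 min RT; delta FRET normalized to ADEP and DMSO controls.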
TRPML1 agonist = activates the human TRPML1 channel. Q9GZU1. TRPML1-expressing cells, Ca2+ dye fluorescence, FDSS; host cell line not named in the record; reference of the full effect not given here. activation, % (test concentration not listed). hit rate 0.12% among 410,000; in the data active = activation above about 50%; inconclusive = about 30% to 50%; inactive = below about 30%; also: 0% is about no effect; the text of the record puts the active cut at 80%
Target sequence (Q9GZU1 whole entry, looked up): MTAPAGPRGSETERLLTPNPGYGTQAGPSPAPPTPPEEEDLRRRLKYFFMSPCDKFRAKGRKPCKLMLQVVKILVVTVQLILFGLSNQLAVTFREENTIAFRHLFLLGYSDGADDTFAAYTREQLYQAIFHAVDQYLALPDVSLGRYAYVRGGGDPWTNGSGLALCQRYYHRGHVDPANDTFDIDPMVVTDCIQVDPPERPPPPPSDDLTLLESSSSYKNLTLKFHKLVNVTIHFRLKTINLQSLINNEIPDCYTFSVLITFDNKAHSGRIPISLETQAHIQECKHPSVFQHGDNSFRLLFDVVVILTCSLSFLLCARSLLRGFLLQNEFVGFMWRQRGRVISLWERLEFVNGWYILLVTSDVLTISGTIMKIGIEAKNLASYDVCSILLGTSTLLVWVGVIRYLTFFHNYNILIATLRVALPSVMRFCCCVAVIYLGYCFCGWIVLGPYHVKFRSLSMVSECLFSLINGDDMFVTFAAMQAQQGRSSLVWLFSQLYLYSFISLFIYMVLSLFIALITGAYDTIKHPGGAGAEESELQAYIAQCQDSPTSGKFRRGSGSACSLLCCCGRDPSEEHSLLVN
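TRPML1-DL cells, Tet-induced overnight (~16 h, 37 degrees C), loaded 45-90 min at room temperature with Ca8 no-wash calcium dye plus quencher. FDSS fluorescence: 10 s baseline, compound pin-transfer, 110 s agonist read, then EC80 54-4 (4uM final) and 110 s antagonist read.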
gsp agonist = activates gsp, the McCune-Albright syndrome mutation; Potency, µM (highest dose often 76.9 µM), inactives show top-dose activation (cAMP increase), most hits filed as activators; gsp mutant cells, cAMP HTRF, 30 min; control for the full effect not named in the record; hit rate 0.13% among 340,000; active = well fitted activation curve with a large enough effect; inconclusive = small, poorly fitted or top-dose-only effect, or another doubt; inactive = no such curve, though single readings can be large or run the other way; cell line not stated here;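 also: phosphodiesterase inhibitor Ro 20-1724 added with compounds to block cAMP breakdown; potency is read from the fitted curve at half-maximal effect; nearly all actives have a fitted effect of over 60% in size; about a fifth of the inactives were tested at one dose only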
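Cells in DMEM/10% FBS with G418 were pretreated with compounds in DMSO plus […] (300 uM stock) for 30 min at 37C. cAMP was measured by HTRF (cAMP-d2 plus anti-cAMP antibody-K) after 30 min at room temperature.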
gsp antagonist = antagonists of gsp mutant (McCune-Albright syndrome); gsp-mutant cells, cAMP HTRF, 30 min; control for the full effect not named in the record; Potency, µM (series often up to 76.9 µM), without a hit: at the highest dose activity change, negative = inhibition, usual class: inhibitors; hit rate 0.4% among 340,000; AID 624288; active = falling curve of any shape with a large fitted effect; inconclusive = falling curve, mostly with a smaller effect; inactive = flat or rising curve; cell line not stated here;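 also: intracellular cAMP measured with PDE inhibitor Ro 20-1724 present during compound exposure; potency is read from the fitted curve at half-maximal effect; % is scaled to controls: 0 for no effect and ±100 for the full control effect; nearly all actives have a fitted effect of over 65% in size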
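Measurement of cellular cAMP by homogeneous time-resolved fluorescence following a 30 min compound exposure at 37C. The PDE inhibitor […] was present throughout; the assay buffer was DPBS with 0.05% BSA and 0.005% Tween 20.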
TRPML1 blocker = inhibitors of human TRPML1 channel; AID 624415; activity change, negative = inhibition, % (test concentration not listed); TRPML1-inducible cells, Ca2+ dye fluorescence, FDSS; active compounds read low; inhibition of EC80 agonist-evoked calcium signal; hit rate 0.02% among 390,000; in the data active means activity change below about -50%; inconclusive means about -30% to -50%; inactive means above about -30%;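 also: stimulus is agonist 54-4 at its EC80 concentration; % is scaled to controls: 0 for no effect and ±100 for the full control effect; compound concentration not given in the record; the text of the record puts the active cut at -80%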
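Calcium fluorescence in TRPML1-DL cells induced overnight with Tet: a 110 s read after compound pin addition, then a 110 s antagonist read after challenge with 54-4 at 4 uM final (EC80).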
Menin-MLL FL inh = inhibitors of human menin-MLL interaction, wild-type MLL peptide; Fluorescence polarization, fluorescein-MLL peptide displacement from menin; FP activity change, % at 61.4 µM; 290,000 tested, under 10 active; inconclusive = falling polarisation curve, or a change in total fluorescence; inactive = total fluorescence flat and polarisation flat or rising; no compound was filed as active; the % refers to the polarisation; negative = inhibition;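 also: % of control where 0% means no effect; inhibitors lower the polarisation; unlabelled MLL peptide was the positive control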
Numbers without * were called inactive; ? = inconclusive; . = not tested or not shown; & = joins results of further samples; [ ] = dose if it differs, or a comment.

SMILES	ClpP mod	TRPML1 agonist	gsp agonist	gsp antagonist	TRPML1 blocker	Menin-MLL FL inh
COc1ccccc1NC(=O)C(C)NS(=O)(=O)c1ccccc1 (configuration not stated)	-1.2%	1.3	12%	11%	-1	0.9
COc1ccc(C2CC(=O)C3=C(C2)Nc2ccccc2N(C(=O)C2CC2)C3c2cccnc2)cc1OC (configuration not stated)	-12%	0.5	17%	4%	48	-16
COc1ccc(/C=C/C(=O)Nc2ccccc2Cl)cc1S(=O)(=O)N1CCOCC1	-4.9%	1.2	31%	-23%	8	4.9
O=C(Nc1cccc(F)c1)[C@@H](c1ccccc1)N1Cc2ccccc2C1=O	-0.9%	-0.5	.	.	1	.
CCc1ccc(NC(=O)CCNC(=O)Cn2cnc3ccccc3c2=O)cc1	-0.1%&-0.6%	-1.1&-0.5	0%[15.4 µM]	10%	-5&4	-2.8
Oc1ccc(/C=C/c2ccc3ccccc3n2)cc1	4.1%	1.9	30%	0%	1	22
CCN(c1cccc(C(F)(F)F)c1)S(=O)(=O)c1ccc2c(c1)CCN2C(C)=O	1.2%	2.9	-43%[inhibitor]	-24%	-1	2.6
c1cc2c(c(NCc3ccncc3)c1)CCCC2	1.9%	0.6	-14%	-10%	27	0.8
O=C(C1=C[C@H](c2ccc(C(F)(F)F)cc2)C[C@H](OCc2ccc(CO)cc2)O1)N1CCOCC1	-2.1%	0.2	-16%	-8%	8	0.8
COc1ccc(CN(C)C(=O)c2cccc(NC(=O)CC3SC(N4CCCCC4)=NC3=O)c2)c(OC)c1 (configuration not stated)	.	1.5	0%[15.4 µM]	?	12	.

Profiles, looked up by structure:
COc1ccc(/C=C/C(=O)Nc2ccccc2Cl)cc1S(=O)(=O)N1CCOCC1 across the screens: ClpP mod: -4.9%; TRPML1 agonist: 1.2; gsp agonist: 31%; gsp antagonist: -23%; TRPML1 blocker: 8; Menin-MLL FL inh: 4.9
COc1ccc(C2CC(=O)C3=C(C2)Nc2ccccc2N(C(=O)C2CC2)C3c2cccnc2)cc1OC (configuration not stated) across the screens: ClpP mod: -12%; TRPML1 agonist: 0.5; gsp agonist: 17%; gsp antagonist: 4%; TRPML1 blocker: 48; Menin-MLL FL inh: -16
CCc1ccc(NC(=O)CCNC(=O)Cn2cnc3ccccc3c2=O)cc1 across the screens: ClpP mod: -0.1%&-0.6%; TRPML1 agonist: -1.1&-0.5; gsp agonist: 0%[15.4 µM]; gsp antagonist: 10%; TRPML1 blocker: -5&4; Menin-MLL FL inh: -2.8

Other records follow:
SMILES	ClpP mod	TRPML1 agonist	gsp agonist	gsp antagonist	TRPML1 blocker	Menin-MLL FL inh
Cc1nn2c(-c3ccccc3)nnc2c2ccccc12	-1.8%	0.9	10%	15%	-4	4.6
CCCNc1c(NC(=O)c2cccs2)c(=O)oc2ccccc12	-2.2%	-0.1	-10%	-1%	-4	.
CCOc1ccc(CC(=O)Nc2ccc(NC(=O)c3ccco3)cc2)cc1OCC	.	0.8	-1%[15.4 µM]	-4%	0	2.0
CN1CCCN(C(=O)/C=C/c2ccc(F)cc2)CC1	2.2%	-0.2	0%[15.4 µM]	13%	-12	3.9
O=C(NC(=O)c1cccc(F)c1)Nc1nc(-c2ccc(F)cc2)cc(C(F)(F)F)n1	.	-0.9	-7%[15.4 µM]	-6%	24	0.4
C[C@H](O)c1[nH]c2cc(F)ccc2c1[C@H](C)O	0.7%	-1.0	.	1%	5	11
CCOC(=O)CSc1nnc(CSc2nc3sc4c(c3c(=O)[nH]2)CCC4)n1C	-3.6%	1.5	?	-11%	0	-1.6
O=C(Nc1nc2ccccc2s1)c1ccc(S(=O)(=O)N2CCCC2)cc1	-15%	-0.5	.	.	38	.
FC(F)(F)c1ccccc1-n1ccnc1	0.1%	0.1	.	-2%	2	-20&-3.8&7.5
O=C(Nc1ccc2c(c1)OCO2)C1CCCCN1S(=O)(=O)c1ccc(F)cc1 (configuration not stated)	-3.2%	1.3	?	-13%	10	4.5
CCOc1cc(N2CCOCC2)c(OCC)cc1NC(=O)c1cc(S(=O)(=O)N2CCOCC2)ccc1C	4.5%	0.8	-1%	-30%	6	.
COc1cccc(C(=O)Nc2ccccc2OCc2cc(=O)n3ccccc3n2)c1	4.1%	0.5	.	.	37	.
Cc1noc(C)c1S(=O)(=O)N(C)C[C@@H]1OCc2cnnn2CCCC(=O)N([C@H](C)CO)C[C@@H]1C	-0.8%	0.0	?	.	11	.
C=CCOc1c(Br)cc(/C=N/NC(N)=O)cc1OC	-1.0%	-0.2	-26%	5%	4	-1.1
COc1ccc(CNC(=O)C2CCN(S(=O)(=O)c3ccc4c(c3)NC(=O)C(C)S4)CC2)cc1 (configuration not stated)	-1.0%	0.2	?	-23%	44	.
CC(=O)N1c2ccc(S(=O)(=O)N3CCN(c4ccc(C)cc4C)CC3)cc2CC1C (configuration not stated)	-0.8%	3.4	.	.	3	.
COc1ccc(NC(=O)CSc2nc(N)c(C(=O)Nc3ccc(N(C)C)cc3)s2)cc1	0.7%	-0.3	-5%	-13%	2	2.5
CCc1cccc(NC(=O)CN2Cc3ccccc3C2=O)c1	1.3%	1.3	.	.	12	.
Cc1nc2c3ccccc3nc(SCC(=O)N3CC(C)CC(C)C3)n2n1 (configuration not stated)	-4.2%	-0.2	-41%	0%	14	3.1
COC(=O)c1ccc2nc(Nc3nc4c(F)cc(F)cc4s3)sc2c1	32µM*	0.0	18%	6%	15	11

2 records picked at random from those above:
SMILES	ClpP mod	TRPML1 agonist	gsp agonist	gsp antagonist	TRPML1 blocker	Menin-MLL FL inh
CCc1cccc(NC(=O)CN2Cc3ccccc3C2=O)c1	1.3%	1.3	.	.	12	.
COc1ccc(CNC(=O)C2CCN(S(=O)(=O)c3ccc4c(c3)NC(=O)C(C)S4)CC2)cc1 (configuration not stated)	-1.0%	0.2	?	-23%	44	.

More records follow:
SMILES	ClpP mod	TRPML1 agonist	gsp agonist	gsp antagonist	TRPML1 blocker	Menin-MLL FL inh
COc1ccc(C(=O)NCC(=O)Nc2cccc(S(=O)(=O)NCc3ccco3)c2)cc1OC	.	-0.3	10%[15.4 µM]	-8%	13	?
Cc1ccc(CN(Cc2cccn2-c2nnc(N3CCCC3=O)s2)C(=O)Nc2ccc(F)cc2)cc1	?	0.5	.	.	7	.
Cc1ccc(C)c2[nH]c(=O)c(CN(Cc3ccco3)S(=O)(=O)c3ccc4c(c3)OCCO4)cc12	-23%	2.6	1%	-25%	-4	3.8
CCOc1ccc(CNC(=O)c2ccc(NC(=O)N3CCSc4ncccc43)cc2)cc1	?	1.9	.	.	11	.
CS(=O)(=O)N1CCN(C(=O)C(Sc2ccccc2)c2ccccc2)CC1 (configuration not stated)	-0.7%	-0.1	-21%	-8%	7	2.4
Cc1ccccc1N1C(=O)CC(c2c[nH]c3ccccc23)C1=O (configuration not stated)	-0.5%	1.6	-29%	11%	5	17
Cc1nnc(N2C(=O)C(O)=C(C(=O)c3ccco3)C2c2ccc(F)cc2)s1 (configuration not stated)	0.4%	0.2	?	-4%	15	?
C=CCOc1ccc(C2CC(C)=NN2c2ccccc2)cc1 (configuration not stated)	-0.4%	0.6	9%	-17%	-8	-1.6
CN(C)c1ccc(CNC2CC(C)(C)NC(C)(C)C2)cc1	-4.7%	0.0	12%	-14%	-7	0.7
O=[N+]([O-])c1ccc(Cl)c(/C=N/Nc2nc(N3CCOCC3)nc(N3CCOCC3)n2)c1	0.4%	-1.0	?	-3%	16	0.9
COC(=O)C(Cc1ccc(O)cc1)NC(=O)CCC(=O)Nc1ccc(S(N)(=O)=O)cc1 (configuration not stated)	-0.5%	1.8	8%	11%	-7	3.7
CC(=O)Nc1ccc(SCC(=O)Nc2ccc(Cl)cn2)cc1	0.1%	-1.2	18%[15.4 µM]	3%	6	-0.5
COc1ccc(/C(C)=N/NC(=O)c2nnn(-c3nonc3N)c2-c2ccccc2)cc1	.	-0.5	?	10%	8	-0.9
COCc1c(C(=O)Nc2ccc(Cl)cc2F)oc2ccccc12	58%	2.8	-28%	1%	-1	-1.3
Cc1ccnc(N/C=C(/NC(=O)c2ccccc2)C(=O)N/N=C\c2ccc(F)cc2)n1	-0.5%	-1.3	-19%	-12%	4	-3.1
Cc1ccc(CNC(=O)C2CCCC2)cc1	.	2.9	-26%	3%	3	.
O=C1CCCc2c1cc(C(=O)Nc1ccc(Cl)cn1)c(=O)n2-c1ccccc1	-8.4%	-0.2	6%	-22%	-2	13
CCN(CC(=O)Nc1c(F)cccc1F)C(=O)c1n[nH]c2ccccc12	-2.7%	0.4	?	7%	-16	.
CCN(CC)S(=O)(=O)c1ccc(C(=O)NC2CC(=O)N(c3ccc4c(c3)OCCO4)C2)cc1 (configuration not stated)	-0.1%	-0.7	.	.	21	.
Cc1cc(=O)c2ccc3ccccc3c2[nH]1	1.2%	1.3	-3%[15.4 µM]	7%	4	1.2
CCN(CC)c1ccc(NC(=O)c2c(C)nn(-c3ccc(F)cc3)c2-n2cccc2)c(C)c1	-17%	3.5	.	.	23	.
Cc1cccn2c(=O)c3cc(C(=O)NC4CCCC4)c(=N)n(CC4CCCO4)c3nc12 (configuration not stated)	0.6%	-1.7	16%[15.4 µM]	0%	-12	7.5
Cc1ccc(SCC(=O)c2c(C)nc3cc(C)ccn23)cc1	-4.2%	1.8	8%	-1%	-3	1.5
O=S(=O)(Cc1ncc(C(F)(F)F)cc1Cl)c1ccccc1	-0.6%	-0.6	23%	6%	4	-0.1
CCc1ccc(OCCNC(=O)c2ccc(S(=O)(=O)N(C)C)cc2)cc1	1.5%	0.5	-6%	6%	-2	0.5
CC(=O)N1CCC(C(=O)NC2CCCc3c2cnn3-c2cc(F)cc(F)c2)CC1 (configuration not stated)	-3.6%	-0.3	-80%[inhibitor]	0%	-4	.
CC(C)Oc1cc(NC(=O)CS(=O)CC(=O)N(C)C)c(Cl)cc1Cl (configuration not stated)	.	0.6	-2%	-2%	11	0.6
COC(=O)c1cccc(NC(=O)CN2CCN(c3ccc(OC)cc3)CC2)c1	0.7%	0.9	-3%	-3%	12	-1.3
COc1ccc(NC(=O)C2Cc3c(-c4ccccc4)ccnc3O2)cc1OC (configuration not stated)	-3.2%	-0.6	.	.	9	.
CCc1ccccc1NC1c2ccccc2C(=O)N1c1cccnc1 (configuration not stated)	-2.9%	1.7	-2%	-1%	-8	-2.3
NC(=O)NCC(=O)N1CCC(C(O)(c2ccccc2)c2ccccc2)CC1	.	0.6	-2%[15.4 µM]	15%	6	1.8
COc1ccccc1N(C)S(=O)(=O)c1ccc(C(=O)NCCCN2CCCC2=O)cc1	-4.6%	-0.2	-29%	.	-7	.
CCC(CC)COC(=O)C1=C(C)NC(=O)NC1c1ccc([N+](=O)[O-])cc1 (configuration not stated)	0.3%	0.5	-28%	-16%	0	-5.0
